D2 agonist = agonists of human D2 dopamine receptor (beta-arrestin); DiscoveRx PathHunter D2 beta-arrestin, luminescence, 90 min; 100% = 57 uM dopamine signal; activation, % (no concentration beside the values); 360,000 compounds, 0.084% hits; AID 624465; in the data active = activation above about 40%; inconclusive = about 15% to 40%; inactive = below about 15%; further: compound concentration not given in the record; the text of the record calls up to 30% inactive
Target sequence (P14416 whole entry, looked up): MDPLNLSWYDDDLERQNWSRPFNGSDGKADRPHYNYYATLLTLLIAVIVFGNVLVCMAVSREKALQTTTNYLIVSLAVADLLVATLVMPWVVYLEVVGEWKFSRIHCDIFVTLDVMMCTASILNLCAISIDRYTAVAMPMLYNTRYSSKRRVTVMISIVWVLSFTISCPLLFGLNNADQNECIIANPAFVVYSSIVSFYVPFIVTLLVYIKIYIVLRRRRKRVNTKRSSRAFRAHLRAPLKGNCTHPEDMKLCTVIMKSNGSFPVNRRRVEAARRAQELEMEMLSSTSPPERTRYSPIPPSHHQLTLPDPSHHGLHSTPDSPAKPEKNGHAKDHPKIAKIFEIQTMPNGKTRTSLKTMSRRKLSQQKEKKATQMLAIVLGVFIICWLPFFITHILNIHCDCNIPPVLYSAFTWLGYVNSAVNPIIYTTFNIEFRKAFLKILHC
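DiscoveRx PathHunter D2 beta-arrestin cells (2,100/well) attached overnight, then compound-stimulated 90 min at 37 C in HBSS/10 mM HEPES/0.1% Tween-20 buffer; beta-galactosidase complementation read by luminescence after 1 h at ambient temperature. Dopamine 57 uM final (EC100) as control.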
Menin MLL FP FL = inhibitors of human menin-MLL interaction, wild-type MLL peptide; FP activity change, % at 61.4 µM; 290,000 tested, under 10 active; Fluorescence polarization, fluorescein-MLL peptide displacement from menin; AID 1766; inconclusive = falling polarisation curve, or a change in total fluorescence; inactive = total fluorescence flat and polarisation flat or rising; no compound was filed as active; the % refers to the polarisation; negative = inhibition;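 further: % of control where 0% means no effect; inhibitors lower the polarisation; unlabelled MLL peptide was the positive control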
gsp ag = activates gsp, the McCune-Albright syndrome mutation; gsp mutant cells, cAMP HTRF, 30 min; control for the full effect not named in the record; Potency, µM (highest dose often 76.9 µM), without a hit: at the top dose activation (cAMP increase), actives largely listed as activators; 340,000 compounds, 0.13% hits; AID 624287; active = well fitted activation curve with a large enough effect; inconclusive = small, poorly fitted or top-dose-only effect, or another doubt; inactive = no such curve, though single readings can be large or run the other way; cell line not stated here;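 further: phosphodiesterase inhibitor Ro 20-1724 added with compounds to block cAMP breakdown; potency means the concentration at half of the fitted maximal effect; nearly all actives have a fitted effect of over 60% in size; about a fifth of the inactives were tested at one dose only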
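Cells in DMEM/10% FBS with G418 were pretreated with compounds in DMSO plus […] (300 uM stock) for 30 min at 37C. cAMP was measured by HTRF (cAMP-d2 plus anti-cAMP antibody-K) after 30 min at room temperature.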
Sfp inh = blocks B. subtilis Sfp PPTase activity; 310,000 compounds, 3.5% hits; Potency, µM, without a hit: max response, negative = inhibition, actives largely listed as inhibitors; Biochemical Sfp PPTase activity, qHTS; Q9F4F7; active means well fitted inhibition curve with a large enough effect; inconclusive means small, poorly fitted or top-dose-only effect, or another doubt; inactive means no such curve, though single readings can be large or run the other way;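 further: the enzyme is Sfp with the accession as filed and its product quenches rhodamine fluorescence; potency means the concentration at half of the fitted maximal effect; 0% = enzyme reaction without inhibitor and -100% = no enzyme wells; top concentration of the series not given in the record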
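Fluorescence-quenching assay with 15 nM Sfp, 5 uM rhodamine-CoA and 12.5 uM BHQ-2-labelled ybbR peptide in pH 7.6 Hepes/MgCl2 buffer. Enzyme was pre-incubated with compound for 15 min at room temperature. Rate was taken from the 30-min fluorescence change (525/598 nm).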
PINK1 modulator = changes PINK1 expression. Potency, µM (titrated, usually from 76.6 µM), for the others: at the top dose activation (PINK1 increase), actives largely listed as activators. AID 624263. PINK1 immunofluorescence, high-content cytometry, 24 h. 410,000 compounds, 0.2% hits; active = well fitted activation curve with a large enough effect; inconclusive = small, poorly fitted or top-dose-only effect; inactive = flat fitted curve, though single readings scatter; cell line not stated here;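 further: potency means the concentration at half of the fitted maximal effect; % of control where 0% means no effect; nearly all actives have a fitted effect of over 65% in size; a mitochondrial uncoupler was the plate control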
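PINK1 protein level read as immunofluorescence by microplate cytometer in a fixed, stained stable cell line after 24 h exposure to five compound concentrations, with CCCP as control.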
ClpP mod = qHTS Assay for Activators of ClpP; ATP-dependent Clp protease proteolytic subunit (Bacillus subtilis (strain 168)), P80244; purified B. subtilis ClpP, FRET peptide cleavage, 20 min; Potency, µM (doses to about 57.5 µM), inactives show top-dose activity change, negative = active; 340,000 compounds, 1.9% hits; AID 651965, 2013; active = well fitted falling curve with a large enough effect; inconclusive = small, poorly fitted or top-dose-only effect; inactive = no such curve, though single readings can be large or run the other way; further: potency means the concentration at half of the fitted maximal effect; the source files actives as falling curves though it sought activators and does not explain the sign; nearly all actives have a fitted effect of over 65% in size; many hits overshoot -100%
Target sequence (P80244 whole entry, looked up): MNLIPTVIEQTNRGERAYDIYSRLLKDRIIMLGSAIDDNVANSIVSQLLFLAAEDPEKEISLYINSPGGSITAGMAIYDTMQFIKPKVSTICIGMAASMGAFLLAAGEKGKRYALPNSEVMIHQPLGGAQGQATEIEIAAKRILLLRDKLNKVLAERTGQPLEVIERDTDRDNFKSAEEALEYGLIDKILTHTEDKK
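Purified B. subtilis ClpP, 10 microg/mL final in Tris/HCl pH8 with KCl, BSA, glycerol and Tween-20, cleaved an Abz/nitrotyrosine-quenched decapeptide. Fluorescence (ex 320, em 430) was read at 0 and 20 min at room temperature. Delta was normalized to 5.8 microM ADEP and DMSO/no-enzyme controls.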
gsp antagonist = antagonizes gsp, the McCune-Albright syndrome mutation. gsp-mutant cells, cAMP HTRF, 30 min; control for the full effect not named in the record. 340,000 compounds, 0.4% hits. Potency, µM (series often up to 76.9 µM), without a hit: at the top dose activity change, negative = inhibition, usual class: inhibitors; active = falling curve of any shape with a large fitted effect; inconclusive = falling curve, mostly with a smaller effect; inactive = flat or rising curve; cell line not stated here;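 further: intracellular cAMP measured with PDE inhibitor Ro 20-1724 present during compound exposure; potency means the concentration at half of the fitted maximal effect; on the % scale 0 is the no-effect control and ±100 the full control effect; nearly all actives have a fitted effect of over 65% in size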
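HTRF cAMP measurement after 30 min RT detection following 30 min, 37C compound treatment alongside […] (added as 300 uM solution) in G418-selected cells seeded at 2000/well and grown 16–24 h.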
* hit, by the source's call; u = inconclusive; x = not tested or not shown; & = joins results of further samples; [ ] = another dose, or the depositor's remark. This is a random part of the collection. About 5.1% of those tested had a hit in this group.

SMILES	D2 agonist	Menin MLL FP FL	gsp ag	Sfp inh	PINK1 modulator	ClpP mod	gsp antagonist
COc1cc2cc(C(c3nnnn3C3CCCC3)N(C)C3CCCCC3)c(=O)[nH]c2cc1OC (stereo unspecified)	-3.5	-0.1	-7%	5%	8.4%[38.3 µM]	u	-4%
O=C(OCC(=O)N1CCN(c2ccccc2)CC1)c1cc(F)c(F)cc1Cl	-5.8	x	-47%[inhibitor]	x	-0.1%	0.9%	x
CCCC(C(=O)NC(C)(C)C)N(CC1CCCO1)C(=O)c1snc(C(N)=O)c1N (stereo unspecified)	-2.8	-1.2	6%[15.4 µM]	-12%	-0.1%	x	-2%
O=C(O)CCSc1nnc(COc2cccc3cccnc23)n1-c1ccccc1	6.9	5.9	29%	9%	-1.8%	x	1%
CSc1ccc(CNC(C)(C)CO)cc1	-5.8	-3.1	16%	9%	1.0%	0.3%	-8%
Cc1cc(NC(=O)CSCC(=O)Nc2ccc(Cl)c(C(F)(F)F)c2)no1	-1.7	x	-15%[15.4 µM]	x	4.2%	x	1%
COC(=O)[C@@H]1CCCN1C(=O)CCc1nnc(C2CCCCC2)o1	-1.9	-0.2	u	19%	0.0%	x	-3%
CNC(=O)[C@@H]1C[C@H]1[C@@H](NC(=O)OCc1ccccc1)c1ccccc1	4.1	-0.3&0.3	-11%	6%&22%	1.7%	1.6%	2%
O=C1c2ccccc2C(=O)N1CCSC(=S)N1CCOCC1	2.1	6.1	3%	8%	1.8%[38.3 µM]	0.0%	2%
CCOC(=O)C(Sc1cc(C)nc(N)n1)C(C)=O (stereo unspecified)	-4.4	-1.1	-23%	56µM*	-1.4%	0.7%	11%
CCN1C2=C(C(=O)CCC2)C(c2ccc(O)cc2)C2=C1CCCC2=O	0.3	1.1	-21%	12%	0.3%	-3.1%	5%
O=C1C2C3CCC(C3)C2C(=O)N1c1ccc2ccccc2c1 (stereo unspecified)	-3.5	-2.4	-6%	13%	3.0%	0.6%	0%
COCCNc1nc(Nc2ccccc2Cl)c2sc(-c3ccccc3)cc2n1	-6.7	x	x	x	9.5%	4.8%	x
Cc1ccc(S(=O)(=O)c2ccc(Cl)cc2)cc1S(=O)(=O)NC(C)C(=O)O (stereo unspecified)	-0.1	-4.8	2%	3%	-0.2%	-6.0%	5%
COc1ccc(S(=O)(=O)N2N=C(c3ccc(NS(C)(=O)=O)cc3)CC2c2ccco2)cc1 (stereo unspecified)	-1.8	u	u	56µM*	-0.7%	-13%	-22%
C=CCN1C(=O)[C@@H]2Cc3c([nH]c4ccccc34)C(c3ccc(O)cc3)N2C1=S (stereo partly specified)	-5.0	u	u	11%	6.4%	-2.8%	-18%
CCOc1ncccc1C(=O)NC(C)CCc1ccccc1 (stereo unspecified)	-0.2	1.7	28%[15.4 µM]	5%	5.6%	-0.7%	-3%
O=C(CCC1CCCC1)Nc1ccc([N+](=O)[O-])cn1	0.9	-6.3	21%	-6%	2.2%	1.2%	14%
O=C1CC(N2CCC(c3nc4ccccc4o3)CC2)C(=O)N1Cc1cccs1 (stereo unspecified)	-2.4	6.3	7%	3%	0.3%	-7.5%	1%
COc1cc([C@@H]2C[C@H]3CN(c4ccccc4)C(=O)[C@]34CCCN24)cc(OC)c1OC	-1.1	-5.6	7%	-6%	5.3%	-1.8%	-1%
COc1ccccc1NC(=O)Cn1cnc2sc(C(=O)NCc3ccco3)c(C)c2c1=O	-1.1	0.7	2%	11%	1.3%	1.6%	-8%
Cc1ccc(C2CC(=O)Nc3c2ccc2ccccc32)cc1[N+](=O)[O-] (stereo unspecified)	-2.5	-1.7	3%[15.4 µM]	3%	4.9%	u	11%
CCc1nnc(NC(=O)c2ccc(S(=O)(=O)N3CCCC(C)C3)cc2)s1 (stereo unspecified)	-2.1	3.3	u	8%	-0.1%	x	-6%
COc1ccc(C2NC(=O)NC(C)=C2C(=O)OC2CCCC(C)C2)cc1 (stereo unspecified)	4.9	-5.1	-4%[15.4 µM]	1%	0.5%	0.1%	-18%
O=C(Oc1cccc2cccnc12)c1cccc([N+](=O)[O-])c1	0.4	-0.2	u	1%	1.9%	x	8%
Cc1ccc(C)c(N2CCN(S(=O)(=O)c3ccc(-c4cc(C)no4)s3)CC2)c1	-28	x	u	0%	2.0%	-2.9%	-6%
Nc1ccccc1C(=O)NNC1=C(C(=O)C(F)(F)F)CCC1	4.1	3.9	21%[15.4 µM]	27%	0.7%	x	-6%
Cn1c(O)c(N=NC(=O)c2cc(-c3cccs3)nc3ccccc23)c2ccccc21	-0.6	-4.4	-28%	2%	1.7%	-5.3%	-2%
Cc1ccc(S(=O)(=O)Cc2ccc(C(=O)NCc3cccs3)o2)cc1	-0.4	0.7	-12%	0%	-0.9%	-1.2%	-7%
CCc1ccc(CN(C)Cc2nc(COc3ccccc3)no2)nc1	1.4	-7.2	-8%[15.4 µM]	18%	0.6%	-9.8%	5%
CCCNC(=O)C1(C)CCCN(C(=O)c2cccc(OC(C)=O)c2C)C1 (stereo unspecified)	-1.2	x	x	x	1.0%	-0.1%	x
Cc1ccc(S(=O)(=O)N2CCN(C(=O)CCOc3cc(C)ccc3C)CC2)cc1	-7.2	x	-25%	x	1.7%	-1.1%	-36%
COc1ccc(C2c3c(ccc4ccccc34)Oc3ncn4nc(Cc5ccccc5)nc4c32)cc1OC (stereo unspecified)	-1.3	8.4	4%	1%	4.0%	u	16%
C[n+]1ccn(CC(=O)c2ccc(Br)cc2)c1	-2.5	0.3	-49%	-10%	1.3%	1.2%	11%
O=C(Nc1cccc(F)c1)N1CC2(CCN(C(=O)c3cc(C(F)(F)F)cc(C(F)(F)F)c3)CC2)C1	x	-1.2	x	14%	2.0%	x	x
COC(=O)CCN1CCC2CC1c1cc(Cl)ccc12 (stereo unspecified)	-1.2	x	x	x	2.6%	0.2%	4%
O=c1[nH]c(/C=C/c2ccc([N+](=O)[O-])cc2)c([N+](=O)[O-])c(=O)[nH]1	u	-1.8	4%	0%	-0.9%	1.0%	2%
CCc1cccc(NC(=O)c2cc(OC)c(OC)c(OC)c2)c1	1.4	-1.1	-31%[15.4 µM]	21%	-0.7%	x	-2%
CC(C)NC(=O)NC(=O)COC(=O)CCCSc1nc2ccccc2s1	5.7	2.5	0%	8%	0.6%	x	6%
O=C1CN(C(=O)c2ccc(Br)o2)C(c2ccc(F)cc2)c2cc(F)ccc2N1 (stereo unspecified)	-1.9	2.9	-25%	-13%	-2.5%[38.3 µM]	-4.9%	-1%
O=C1CSC(=S)N1c1ccccc1	-0.3	x	-5%	x	-2.1%	-0.3%	-17%
CC1CCCCN1CCNC(=O)CN1C(=O)COc2ccccc21 (stereo unspecified)	-2.2	-0.4	2%	0%	2.5%[38.3 µM]	0.2%	-1%
Cc1cc(OCCn2nc(C(=O)O)c3ccccc3c2=O)ccc1C(C)C	-1.9	-4.9	0%[15.4 µM]	-4%	11%	x	-16%
CC(C)c1onc(C(=O)N2CCN(c3ccccc3)CC2)c1[N+](=O)[O-]	2.8	0.4	6%	-5%	3.4%	0.3%	8%
O=C(Nc1ccc(Oc2ccc(Cl)cc2)cc1)c1ncn[nH]1	-1.3	-0.2	3%	14%	0.8%	11%	3%
CCO[C@H]1OC(C(=O)NC2CC2)=C[C@@H](c2coc3ccccc3c2=O)[C@@H]1CCCO	-0.4	-8.8	x	2%	-1.2%	-14%	-1%
CC1CC(=O)c2cnc(N)nc2C1 (stereo unspecified)	1.2	-2.4	12%	6%	-0.2%	-1.9%	2%
COC(=O)N/N=C(\C)c1cccc(C(F)(F)F)c1	-2.1	-3.2	7%[15.4 µM]	25%	5.6%	x	-9%
CC(C)CCNC(=O)CCCC1=NS(=O)(=O)c2ccccc2N1	-7.9	-0.6	-23%	12%	-1.5%	1.3%	5%
COc1cc(-c2c(C#N)c(N)nc(SCc3ccncc3)c2C#N)cc(OC)c1OC	-0.4	0.8	4%	4%	4.5%[38.3 µM]	-23%	u
O=C(NCc1ccccc1)C(=O)NCC1OCCCN1S(=O)(=O)c1cccs1 (stereo unspecified)	-3.3	x	-2%	17%	0.8%	0.8%	18%
CCN(CC(=O)Nc1c(F)cccc1F)C(=O)C1CC(=O)N(c2ccccc2OC)C1 (stereo unspecified)	-1.1	x	-21%	2%	0.0%	0.6%	20%
COc1ccc(-c2nn(-c3ccccc3)cc2C(=O)NC2CCCCC2C)cc1 (stereo unspecified)	-3.2	x	9%[15.4 µM]	x	13%	x	-3%
CN(Cc1cccc(F)c1)C(=O)c1cc(=O)[nH]c2ccccc12	-5.0	-0.3	10%[15.4 µM]	14%	0.1%	x	2%
CC(C)(C)OC(=O)N/N=C\c1ccc(OC(=O)c2cccs2)cc1	0.2	6.2	-8%[15.4 µM]	6%	-0.7%	-5.6%	6%
COc1cccc(NC(=S)NCc2ccco2)c1	-1.6	-0.2	-16%	16%	0.2%	1.6%	16%
O=C(Nc1cc(S(=O)(=O)N2CCOCC2)ccc1-n1cncn1)c1ccc(Cl)cc1	-1.5	1.6	4%	5%	1.5%	-1.5%	-12%
O=C(OCCOc1ccc(F)cc1)c1ccc(S(=O)(=O)N2CCCC2)cc1	-3.4	x	u	x	-1.1%	-1.7%	-11%
O=C(CCCNC(=O)/C(=C/c1ccc(F)cc1)NC(=O)c1ccccc1)OCc1ccccc1	0.1	0.5	u	7%	11%	1.7%	-21%
CCCc1cc(=O)oc2c3c(cc(OCC(=O)NCCN4CCOCC4)c12)OC(C)(C)CC3	-5.5	u	x	6%	-0.5%	4.7%	2%

Bioassay records: PubChem BioAssay, National Center for Advancing Translational Sciences (NCATS)
